Six1-Eya2 blk: Six1/Eya2 interaction inhibition. AID 651725. Q15475+O00167. AlphaScreen GST-Six1/His-Eya2 binding, biochemical; hits give low values; control for the full effect not named in the record. hit rate 0.56% among 360,000. activity change, % (test concentration not listed); in the data active = activity change below about -65%; inconclusive = about -30% to -65%; inactive = above about -30%; further: on the % scale 0 is the no-effect control and ±100 the full control effect; compound concentration not given in the record
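Six1/Eya2 binding was read as AlphaScreen signal after compounds were pinned into GST-Six1 plus His-tagged Eya2 (5X stock 250/500 nM) in pH 8.0 Tris/NaCl/TCEP buffer, beads added, then incubated 1 h, 37 C, dark.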
D2 potentiator: human D2 receptor positive allosteric modulation; P14416; potentiation, % (no concentration beside the values); hit rate 0.23% among 360,000; AID 624464; DiscoveRx D2 beta-arrestin cells, luminescence, 90 min; 100% = 57 uM dopamine signal; active = potentiation of 50% or more; inconclusive = 30% to 50%; inactive = 30% or less;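 further: compound concentration not given in the record; tested on top of an EC20 dose of dopamine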
Target sequence (P14416 whole entry, looked up): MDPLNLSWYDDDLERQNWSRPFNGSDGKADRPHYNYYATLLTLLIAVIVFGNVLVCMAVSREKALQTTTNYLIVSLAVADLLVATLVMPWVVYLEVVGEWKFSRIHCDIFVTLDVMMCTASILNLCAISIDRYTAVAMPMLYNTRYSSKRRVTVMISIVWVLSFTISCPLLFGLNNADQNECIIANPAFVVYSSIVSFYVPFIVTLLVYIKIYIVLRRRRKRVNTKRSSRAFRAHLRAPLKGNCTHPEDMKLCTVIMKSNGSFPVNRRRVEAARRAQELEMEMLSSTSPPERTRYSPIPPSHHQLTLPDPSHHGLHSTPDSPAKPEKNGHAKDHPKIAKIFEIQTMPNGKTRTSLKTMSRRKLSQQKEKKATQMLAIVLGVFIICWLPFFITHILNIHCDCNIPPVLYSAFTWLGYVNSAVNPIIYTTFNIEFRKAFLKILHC
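PathHunter D2 cells, attached overnight at 37 deg C, received compound in DMSO plus dopamine at EC20 (50 nM final) for 90 min at 37 deg C. Beta-arrestin recruitment was read as luminescence after 1 h with detection reagent at ambient temperature.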
TRPML1 agonist: activates the human TRPML1 channel | activation, % (concentration not given with the values) | TRPML1-expressing cells, Ca2+ dye fluorescence, FDSS; host cell line not named in the record; reference of the full effect not given here | Q9GZU1 | hit rate 0.12% among 410,000; in the data active = activation above about 50%; inconclusive = about 30% to 50%; inactive = below about 30%; further: 0% is about no effect; the text of the record puts the active cut at 80%
Target sequence (Q9GZU1 whole entry, looked up): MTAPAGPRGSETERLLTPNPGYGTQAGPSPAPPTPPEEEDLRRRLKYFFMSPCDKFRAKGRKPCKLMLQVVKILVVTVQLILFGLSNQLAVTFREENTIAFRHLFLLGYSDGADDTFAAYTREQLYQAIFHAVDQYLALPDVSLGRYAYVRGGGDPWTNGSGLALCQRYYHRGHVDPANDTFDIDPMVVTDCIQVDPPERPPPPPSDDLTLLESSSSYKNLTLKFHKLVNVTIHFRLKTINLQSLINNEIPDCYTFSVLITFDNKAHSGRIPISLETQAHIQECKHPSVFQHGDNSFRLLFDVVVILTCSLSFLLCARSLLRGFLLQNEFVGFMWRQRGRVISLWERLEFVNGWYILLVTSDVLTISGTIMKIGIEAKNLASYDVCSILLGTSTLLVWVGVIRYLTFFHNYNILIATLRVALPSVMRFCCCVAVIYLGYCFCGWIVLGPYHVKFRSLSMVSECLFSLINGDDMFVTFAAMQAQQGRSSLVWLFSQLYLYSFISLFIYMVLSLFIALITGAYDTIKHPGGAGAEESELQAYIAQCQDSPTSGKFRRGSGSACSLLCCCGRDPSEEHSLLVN
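Calcium fluorescence on an FDSS kinetic reader gave the read-out. Tet-induced TRPML1-DL cells were plated overnight, dye-loaded (Ca8 with quencher, 45-90 min, room temperature, dark), then read 110 s after compound addition, and again 110 s after 4uM final 54-4 (EC80).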
TRPML1 inh: inhibitors of human TRPML1 channel. TRPML1-inducible cells, Ca2+ dye fluorescence, FDSS; hits give low values; inhibition of EC80 agonist-evoked calcium signal. hit rate 0.02% among 390,000. AID 624415. activity change, negative = inhibition, % (test concentration not listed); in the data active means activity change below about -50%; inconclusive means about -30% to -50%; inactive means above about -30%;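 further: stimulus is agonist 54-4 at its EC80 concentration; on the % scale 0 is the no-effect control and ±100 the full control effect; compound concentration not given in the record; the text of the record puts the active cut at -80%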
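Calcium fluorescence in TRPML1-DL cells induced overnight with Tet: a 110 s read after compound pin addition, then a 110 s antagonist read after challenge with 54-4 at 4 uM final (EC80).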
D2 agonist: human D2 receptor agonism in beta-arrestin assay. P14416. DiscoveRx PathHunter D2 beta-arrestin, luminescence, 90 min; 100% = 57 uM dopamine signal. activation, % (no concentration beside the values). hit rate 0.084% among 360,000. AID 624465; in the data active = activation above about 40%; inconclusive = about 15% to 40%; inactive = below about 15%; further: compound concentration not given in the record; the text of the record calls up to 30% inactive
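DiscoveRx PathHunter D2 beta-arrestin cells (2,100/well) attached overnight, then compound-stimulated 90 min at 37 C in HBSS/10 mM HEPES/0.1% Tween-20 buffer; beta-galactosidase complementation read by luminescence after 1 h at ambient temperature. Dopamine 57 uM final (EC100) as control.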
PINK1 modulator: modulators of PINK1 expression | Potency, µM (series often up to 76.6 µM), inactives show at the top dose activation (PINK1 increase), most hits filed as activators | AID 624263 | PINK1 immunofluorescence, high-content cytometry, 24 h | hit rate 0.2% among 410,000; active = well fitted activation curve with a large enough effect; inconclusive = small, poorly fitted or top-dose-only effect; inactive = flat fitted curve, though single readings scatter; cell line not stated here;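 further: potency means the concentration at half of the fitted maximal effect; % of control where 0% means no effect; nearly all actives have a fitted effect of over 65% in size; a mitochondrial uncoupler was the plate control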
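Cells are seeded, rested 12 hours, then given compound at five concentrations or DMSO for 24 hours. After fixation, blocking and antibody staining, PINK1 amount and mitochondrial localization are scored; CCCP serves as control.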
Numbers without * were called inactive; ? = inconclusive; / = no result given; & = joins results of further samples; [ ] = remark or other dose.

SMILES | Six1-Eya2 blk | D2 potentiator | TRPML1 agonist | TRPML1 inh | D2 agonist | PINK1 modulator
COc1cc(C(=O)NCCC(=O)NC2CCCc3ccccc32)cc(OC)c1OC (configuration not stated) | 1 | -6 | 0.6 | 29 | -0.7 | 1.2%
Fc1ccc(CN2CCSCC2)cc1Br | -7 | -14 | -0.3 | 0 | -1.2 | 7.6%[38.3 µM]
COc1ccc([C@H]2CC(=O)C[C@@H](CCn3cc(-c4ccccc4)nn3)O2)cc1 | -1 | / | -0.5 | / | / | 1.0%
CC1=C(C(=O)Nc2ccccc2C)C(c2ccco2)n2ncnc2N1 (configuration not stated) | / | / | 0.3 | -10 | / | 5.3%
COc1cc(NC(=O)Cc2ccccc2)nc(OC)n1 | 1 | -3 | / | / | -3.9 | 0.5%
O=S(=O)(NCc1nnnn1-c1ccc(F)cc1)c1ccc(F)cc1 | 6 | -20 | -0.4 | -6 | -2.8 | 1.5%
CC(=O)C1=CCC(c2ccc(Br)cc2)N(S(=O)(=O)c2ccc(C)cc2)C1 (configuration not stated) | -1 | -1 | -0.3 | 22 | -4.4 | 21%
CC1CCCCC1NC(=O)CN1C(=O)NC(C)(c2ccc(OC(F)F)cc2)C1=O (configuration not stated) | 7 | -3 | 2.3 | 47 | -1.7 | 5.3%
O=C(CSc1nnc(-c2ccc(F)cc2)o1)NC1CCCC1 | 11 | -2 | 1.6 | -6 | -2.8 | -0.2%
O=C(Cc1sc(Nc2ccccc2)nc1-c1ccccc1)NCc1ccccc1 | -6 | -18 | -0.2 | 7 | 0.5 | 1.8%
COc1ccccc1CNC(=O)CN1C(=O)NC(Cc2ccccc2)(c2ccccc2)C1=O (configuration not stated) | 1 | -21 | -0.1 | 16 | 0.4 | 1.8%
Cc1cc(=O)[nH]c2[nH][nH]c(=O)c12 | -5 | -14 | -0.3 | -10 | -5.5 | 0.0%
Cc1cccc(C)c1-n1c(C)cc(/C=C2\C(=O)NN(c3ccccc3)C2=O)c1C | -1 | -9 | -0.2 | 0 | -0.6 | 10%[38.3 µM]
O=C(CCc1ccc(S(=O)(=O)NC2CCCCC2)cc1)NCc1ccccc1 | 5 | -36 | 1.6 | -20 | -4.6 | -0.4%
S=C(NCc1cccnc1)Nc1cccc(Cl)c1 | 4 | -10 | 0.0 | 21 | 0.7 | 0.3%
CC(C)NC(=O)Cn1c(=O)nc(-c2ccccc2F)c2cc(Cl)ccc21 | / | / | 1.6 | -17 | / | 0.3%
CCCCN(C=O)c1c(CC)nc2c(OCc3ccccc3C)cccn12 | -4 | 1 | -0.8 | / | -2.9 | 0.7%
CCn1cc(CN2CCN(CCC(C)C)C(CCO)C2)c2ccccc21 (configuration not stated) | -3 | -66 | -0.7 | 6 | -3.9 | -1.7%
COC(=O)c1sccc1NC(=O)C1C2C=CC(C2)C1C(=O)O (configuration not stated) | 8 | -13 | 1.4 | 40 | -1.5 | -1.4%
COc1ccc(Cc2nnc(CCc3ccccc3)s2)cc1 | -2 | -15 | 1.4 | 20 | 3.8 | 0.5%
Cc1nc2scc(C)n2c(=O)c1S(=O)(=O)N1CCN(c2cccc(C(F)(F)F)c2)CC1 | 12 | -5 | 0.2&0.9 | -17&-7 | -1.9 | -1.9%&-0.8%
CC(=O)N1CCCc2cc(S(=O)(=O)N(C)CC(=O)Nc3cccc(C)c3C)ccc21 | / | / | -0.8 | 10 | / | -1.9%
Cc1ccccc1NC(=O)C(C#N)Cc1cccnc1 (configuration not stated) | 0 | ? | 0.4 | -4 | -0.5 | 3.0%
COc1cc(-c2c(CCO)sc3ccccc23)cc(OC)c1OC | -7 | / | -0.6 | / | / | 8.0%
C/C=C/c1ccc(OCC(=O)O)c(OC)c1 | 10 | -3 | 0.0 | 3 | -0.2 | -2.7%

(next part)
SMILES | Six1-Eya2 blk | D2 potentiator | TRPML1 agonist | TRPML1 inh | D2 agonist | PINK1 modulator
CC1(C(=O)NS(=O)(=O)c2ccccc2)CCN1C(=O)CC1CCCCC1 (configuration not stated) | 6 | -5 | -0.6 | / | -3.5 | 1.2%
CN(C)C(=O)CCc1ccc2c3c([nH]c2c1)[C@]1(CCC2CCCC2)[C@@H](C(=O)N2CCOCC2)C[C@H](CC(=O)NC(C)(C)C)C(=O)N1CC3 | 0 | -6 | 0.1 | -1 | -4.9 | 1.5%
CCc1ccc(NS(=O)(=O)c2ccc3[nH]cc(C(=O)NCCc4ccccc4)c(=O)c3c2)cc1 | / | / | 1.8 | 0 | / | 0.5%
CCOc1ccc(NC(=O)Cn2cc(C(=O)c3ccccc3)c(=O)c3cc4c(cc32)OCCO4)cc1 | / | / | -0.2 | -4 | / | 2.6%
CCc1nc2ccc(C(=O)N3CCN(C(=O)c4ccco4)CC3)cn2c1N(C)Cc1cccs1 | -5 | -6 | -1.1 | / | 3.8 | 1.4%
CC[C@H](C)[C@@H]1OC(=O)[C@@H](C)[C@@H](CC)NC(=O)[C@H](C)N(C)C(=O)C(C)(C)C(=O)C(C)NC(=O)[C@H](Cc2ccccc2)N(C)C(=O)[C@H](C(C)C)N(C)C(=O)CNC(=O)[C@H](CC(C)C)N(C)C(=O)CNC1=O (some centres not stated) | 14 | -7 | -0.3 | / | -3.7 | 11%
COc1ccc(C(=O)C2CCCN(Cc3cccc4c3OCO4)C2)cc1OC (configuration not stated) | -12 | -9 | -0.9 | 1 | -0.8 | -1.0%
Cn1c(CNC(=O)C(C)(C)C)nc2ccccc21 | 2 | -14 | 0.7 | 6 | -1.9 | 4.3%
Cc1onc(-c2ccccc2)c1C(=O)Nc1ccc(Br)cc1Cl | 15 | 2 | 2.4 | 20 | -5.4 | 8.4%
CCn1c(CC(=O)Nc2ccc(C)c(Cl)c2)nnc1SCC(=O)Nc1nc(C)cs1 | 6 | -3 | 0.0 | -4 | 1.1 | ?
CNc1nc(CC(C)=O)ns1 | 5 | -9 | -0.8 | -15 | -1.4 | 0.3%
CCN(CC)CCCC(C)NC(=O)c1c(NC(=O)c2ccccc2)sc2c1CCCC2 (configuration not stated) | -3 | 0 | -0.6 | 4 | -2.5 | -0.9%
CCCc1nc2oc3ccccc3c(=O)c2c(=O)n1CCCOC | 9 | -1 | 0.1 | 0 | -3.3 | 1.8%
Cc1ccc(S(=O)(=O)N2CCC(C(=O)OCC(=O)N3CCCC(C)C3)CC2)cc1C (configuration not stated) | 2 | -17 | -1.2 | 3 | -4.9 | 3.9%
COc1cccc(NC(=O)C2CCN(S(=O)(=O)c3ccc4c(c3)C(C)(C)C(=O)N4C)CC2)c1 | -1 | -4 | -1.3 | 16 | 3.9 | 2.0%
O=C(Nc1ccc2snnc2c1)N1CCCCC1 | 0 | -7 | -0.7 | 18 | -2.8 | 0.8%
Cc1cc(C(=O)Nc2cccc(C(F)(F)F)c2)c2c(C)nn(-c3cccc(F)c3)c2n1 | / | / | 2.2 | 11 | / | ?
CCN(CC)S(=O)(=O)c1ccc(N2CCOCC2)c(NC(=O)c2ccccc2)c1 | -2 | 2 | 4.5 | 12 | -11 | 2.5%
COC(=O)c1ccc(CSc2nc3c(cnn3-c3ccc(C)cc3)c(=O)[nH]2)o1 | -1 | -11 | 1.5 | 2 | 9.7 | /
Cc1c(-c2ccc(Cl)cc2)c(=O)oc2c(CN3CCOCC3)c(O)ccc12 | / | / | -1.0 | 17 | / | -0.5%
CCNC(=O)NC1(C(=O)Nc2ccc3c(c2)OCCO3)CCCCC1 | 14 | -1 | -0.2 | -5 | -1.3 | 0.1%
CCSc1nc(N)c(NC(=O)c2ccc(Br)o2)c(=O)[nH]1 | 1 | 7 | 0.0 | -4 | -5.5 | 1.3%
O=C1C2CC=CCC2C(=O)N1c1ccc(N2CCN(c3ccccn3)CC2)c([N+](=O)[O-])c1 (configuration not stated) | -6 | 7 | -0.3 | -3 | 1.9 | 1.8%
COc1ccc2c(c1)CC(C(=O)Nc1ccc(OC)cc1OC)CO2 (configuration not stated) | / | / | -1.1 | 26 | / | 0.0%
O=C(CN(Cc1ccco1)C(=O)CNS(=O)(=O)c1ccc(Cl)cc1)NCc1ccc(F)cc1 | 2 | -4 | -0.4 | -7 | -1.8 | -0.7%

Retrieved one by one from the entries so far (2):
SMILES | Six1-Eya2 blk | D2 potentiator | TRPML1 agonist | TRPML1 inh | D2 agonist | PINK1 modulator
Cc1onc(-c2ccccc2)c1C(=O)Nc1ccc(Br)cc1Cl | 15 | 2 | 2.4 | 20 | -5.4 | 8.4%
O=C(Nc1ccc2snnc2c1)N1CCCCC1 | 0 | -7 | -0.7 | 18 | -2.8 | 0.8%

(continued)
SMILES | Six1-Eya2 blk | D2 potentiator | TRPML1 agonist | TRPML1 inh | D2 agonist | PINK1 modulator
O=C(NC1CCCC1)C1c2ccccc2OCC(=O)N1Cc1ccc2c(c1)OCO2 (configuration not stated) | 10 | / | -0.7 | / | / | 0.2%
COc1ccc(Cl)cc1NS(=O)(=O)c1c(C)[nH]c(C)c1C(=O)N1CCCCC1 | 3 | -7 | 0.5 | 4 | -0.5 | 1.2%
Oc1c(C(Nc2cccc(C(F)(F)F)c2)c2cccnc2)ccc2cccnc12 (configuration not stated) | -82* | 17 | 1.3 | 10 | 7.3 | 3.7%
COC(=O)[C@H](CCSC)NC(=O)Nc1ccc(C)cc1C | 2 | -7 | 0.2 | 30 | -0.9 | 5.4%[38.3 µM]
CC1(C)NC(=O)N(CC(=O)Nc2cc(C(F)(F)F)cc(C(F)(F)F)c2)C1=O | 5 | 2 | -0.6 | 9 | 3.6 | 0.6%
Cc1nn(Cc2ccc(Cl)cc2)c(C)c1NC(=O)c1cc(-c2ccc3c(c2)OCO3)on1 | -3 | -12 | 0.2 | 1 | 2.9 | 12%[38.3 µM]
CCC1=[N+](CC(=O)c2ccc(C)cc2)CCn2cccc21 | 21 | 1 | -0.2 | -14 | -1.2 | ?
CNC(=O)NC(=O)C(C)Oc1ccccc1F (configuration not stated) | 2 | -5 | -0.7 | 2 | -3.1 | 0.1%
Cn1c(=O)c2cc3ccccc3nc2n(C)c1=O | -5 | -4 | 0.0 | 9 | -4.0 | 0.5%
O=C(NC(=S)Nc1cccc2cccnc12)c1ccccc1 | -6 | 1 | -0.4 | 12 | -2.8 | 8.9%
COc1ccc(CNC(=O)CCS(=O)(=O)c2ccc3c(c2)NC(=O)C(C)S3)cc1 (configuration not stated) | 2 | -7 | -0.5 | -1 | 0.0 | 0.8%
Cc1[nH]n(-c2ccccc2)c(=O)c1N=Nc1ccccc1C(=O)O | -3 | 9 | 1.1 | 15 | -2.8 | -2.1%

Record cards (already shown):
CC1(C)NC(=O)N(CC(=O)Nc2cc(C(F)(F)F)cc(C(F)(F)F)c2)C1=O across the screens: Six1-Eya2 blk = 5; D2 potentiator = 2; TRPML1 agonist = -0.6; TRPML1 inh = 9; D2 agonist = 3.6; PINK1 modulator = 0.6%
Oc1c(C(Nc2cccc(C(F)(F)F)c2)c2cccnc2)ccc2cccnc12 (configuration not stated) across the screens: Six1-Eya2 blk = -82*; D2 potentiator = 17; TRPML1 agonist = 1.3; TRPML1 inh = 10; D2 agonist = 7.3; PINK1 modulator = 3.7%
COc1ccc(Cl)cc1NS(=O)(=O)c1c(C)[nH]c(C)c1C(=O)N1CCCCC1 across the screens: Six1-Eya2 blk = 3; D2 potentiator = -7; TRPML1 agonist = 0.5; TRPML1 inh = 4; D2 agonist = -0.5; PINK1 modulator = 1.2%

Source: PubChem BioAssay
